Cruzain inh noDet = qHTS Assay for Promiscuous and Specific Inhibitors of Cruzain (without detergent). Cruzipain (Trypanosoma cruzi), P25779. AID 1476, 2009. 200,000 compounds, 2.3% hits. Potency, µM, without a hit: max response, negative = inhibition, hits mostly inhibitors. purified cruzain, Z-FR-AMC fluorescence, no detergent; active = well fitted curve in the direction sought with a large enough effect; inconclusive = small, poorly fitted or top-dose-only effect, or another doubt; inactive = no such curve, though single readings can be large; an effect the other way counts as inactive or inconclusive;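 also: plate controls were enzyme without inhibitor for no effect and buffer without enzyme for full effect; nearly all actives have a fitted effect of over 40% in size; top concentration of the series not given in the record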
Target sequence (P25779 123-467 limits assumed): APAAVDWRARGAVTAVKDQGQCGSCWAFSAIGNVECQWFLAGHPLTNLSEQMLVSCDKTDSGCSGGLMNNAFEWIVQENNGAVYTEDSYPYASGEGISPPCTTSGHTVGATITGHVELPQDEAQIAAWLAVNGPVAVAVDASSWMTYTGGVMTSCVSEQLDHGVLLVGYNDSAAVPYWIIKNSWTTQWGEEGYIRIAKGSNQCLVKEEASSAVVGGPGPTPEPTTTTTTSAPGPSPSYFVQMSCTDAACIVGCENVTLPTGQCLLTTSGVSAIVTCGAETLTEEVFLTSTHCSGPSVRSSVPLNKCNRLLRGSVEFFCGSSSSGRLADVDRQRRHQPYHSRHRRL
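Purified cruzain at 1.5 nM, pre-incubated 15 min with compound at room temperature in 100 mM sodium acetate pH 5.5, 5 mM DTT, 0.00005% Triton X-100. Reaction started with 2 uM Z-FR-AMC; AMC fluorescence increase over 60 s gives rate.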
Lassa entry inh = qHTS for Inhibitors of binding or entry into cells for Lassa Virus; Lassa virus pseudotype entry inhibition, cell reporter; control for the full effect not named in the record; Potency, µM (top dose mostly 37.9 µM), for the others: top-dose activity change, negative = inhibition, actives largely listed as inhibitors; 300,000 compounds, 1.2% hits; active means well fitted inhibition curve with a large enough effect; inconclusive means small, poorly fitted or top-dose-only effect, or effect the other way; inactive means flat fitted curve, though single readings scatter; tested in HEK293 cells; also: % is scaled to controls: 0 for no effect and ±100 for the full control effect; nearly all actives have a fitted effect of over 50% in size; luciferase read-out
RE007 growth inh = qHTS Assay for Inhibitors of the HIV-1 protein Vpr. S. pombe RE007 Vpr strain, BacTiter-Glo ATP luminescence, 24 h; control for the full effect not named in the record. AID 651644, 2012. Potency, µM (doses to about 92.2 µM), for the others: at the highest dose activity change, negative = less growth. 360,000 compounds, 0.21% hits; active = well fitted falling curve with a large enough effect; inconclusive = small, poorly fitted or top-dose-only effect; inactive = no such curve, though single readings can be large or run the other way;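 also: % is scaled to controls: 0 for no effect and ±100 for the full control effect; nearly all actives have a fitted effect of over 50% in size; the assay follows cell death caused by Vpr and the record does not say whether a fall means rescue or toxicity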
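Fission yeast strain RE007, carrying one chromosomally integrated HIV-1 vpr copy, was seeded at OD 0.01 in PMG+AL medium with 23 nL pinned compound. After 24 h at 30 °C and 99% humidity, viability was read by BacTiter-Glo luminescence.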
SARS PLpro yeast = qHTS of Yeast-based Assay for SARS-CoV PLP | S. cerevisiae expressing SARS-CoV PLpro, growth rescue; control for the full effect not named in the record | Potency, µM (doses to about 32.9 µM), for inactives: at the top dose activity, positive = growth rescue | 330,000 compounds, 0.19% hits | AID 485353, 2010; also: 0% is about no effect; nearly all actives have a fitted effect of over 55% in size; growth read by luminescence after 48 h
Marburg entry inh = qHTS for inhibitors of binding or entry into cells for Marburg Virus; Marburg virus pseudotyped entry inhibition, cell reporter; control for the full effect not named in the record; about a third of the inactives were read at about 46 µM; Potency, µM (series often up to 37.8 µM), inactives show top-dose activity change, negative = inhibition, hits mostly inhibitors; 300,000 compounds, 1.8% hits; AID 540276, 2011; active = well fitted inhibition curve with a large enough effect; inconclusive = small, poorly fitted or top-dose-only effect, or effect the other way; inactive = flat fitted curve, though single readings scatter; tested in HEK293 cells; about a fifth of its hits are not listed in these tables; also: % is scaled to controls: 0 for no effect and ±100 for the full control effect; luciferase read-out
NS1 inh = qHTS Assay for Inhibitors of Influenza NS1 Protein Function | Potency, µM (highest dose often 46.1 µM), for the others: at the top dose activity, positive = more growth | S. cerevisiae slowed by influenza A NS1, growth recovery by OD600 | 270,000 compounds, 0.4% hits | AID 2326, 2010; also: actives are rising curves; nearly all actives have a fitted effect of over 50% in size
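S. cerevisiae expressing influenza A NS1, grown in glucose, washed, then diluted 1:100 into pH 6.0 -URA galactose medium with 23 nl compound. Growth recovery read as OD600; NS1-free strain serves as control.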
Cruzain inh Det = qHTS Assay for Promiscuous and Specific Inhibitors of Cruzain (with detergent). Cruzipain (Trypanosoma cruzi), P25779. purified cruzain, Z-FR-AMC fluorescence, 0.01% Triton. Potency, µM, inactives show max response, negative = inhibition, hits mostly inhibitors. 200,000 compounds, 0.43% hits. AID 1478, 2009; active = well fitted curve in the direction sought with a large enough effect; inconclusive = small, poorly fitted or top-dose-only effect, or another doubt; inactive = no such curve, though single readings can be large; an effect the other way counts as inactive or inconclusive;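 also: plate controls were neutral wells for no effect and buffer without enzyme for full effect; nearly all actives have a fitted effect of over 40% in size; top concentration of the series not given in the record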
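Cysteine protease activity tested under reducing, mildly acidic conditions (100 mM sodium acetate pH 5.5, 5 mM DTT) plus 0.01% Triton X-100. Cruzain 1.5 nM; substrate Z-FR-AMC 2 uM; 15 min compound preincubation at room temperature.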
2A StopGo = High Throughput Screening for Foot and Mouth Disease Virus Antivirals; human cells with a luciferase reporter of 2A StopGo recoding; control for the full effect not named in the record; 410,000 compounds, 1.2% hits; Potency, µM (titrated, usually from 57.9 µM), for the others: top-dose signal change, negative = less light; active = well fitted falling curve with a large enough effect; inconclusive = small, poorly fitted or top-dose-only effect; inactive = no such curve, though single readings can be large or run the other way; tested in HEK293T cells; also: % is scaled to controls: 0 for no effect and ±100 for the full control effect; nearly all actives have a fitted effect of over 45% in size; luciferase light after 4 h
* = called active by the depositor; ? = inconclusive; / = no result given; & = joins results of further samples; [ ] = another dose, or the depositor's remark. Unless noted, calls follow the shape of the dose curve; as a rule, active means well fitted rising curve with a large enough effect; inconclusive means small, poorly fitted or top-dose-only effect; inactive means no such curve, though single readings can be large or run the other way. Potency is read from the fitted curve at half-maximal effect.

molecule	RE007 growth inh	Cruzain inh noDet	SARS PLpro yeast	Marburg entry inh	Cruzain inh Det	2A StopGo	NS1 inh	Lassa entry inh
O=C(O)c1ccc(Cl)c(S(=O)(=O)N(Cc2ccccc2)c2ccccc2Cl)c1	0%	/	1%	/	/	-11%	15%	/
O=C(NCC(c1cccnc1)N1CCc2ccccc2C1)C(=O)Nc1ccccc1F (stereo not given)	/	-6%	/	/	-1.7%	-18%	/	23%[46.1 µM]
Cc1cccnc1NC(=O)c1ccc(S(=O)(=O)N2CCC(C)CC2)cc1	47%	/	-2%	3%	/	-17%	/	-9%
S=c1[nH]nc(-c2ccccn2)n1/N=C/c1cccc(Cl)c1	-5%	/	0%	18%[46.1 µM]	/	13%	/	-1%[46.1 µM]
COc1ccccc1N1CCN(CC(=O)Nc2sccc2C#N)CC1	-4%	-5%	22%	?	5.9%	-28%	4%	10%
CC(=O)Nc1ccc(NC(=O)c2ccco2)cc1	-3%	-5%	-4%	18%	-1.3%	59%[activator]	6%	?
CN(CC(=O)NCc1ccco1)S(=O)(=O)c1ccc2c(c1)c(=O)n(C)c(=O)n2C	-1%	/	-1%	/	/	-1%	0%	/
CC(C)c1ccc(NC(=O)Cn2c(=O)n(CCc3ccccc3)c(=O)c3ccccc32)cc1	/	-14%	/	19%[46.1 µM]	-1.4%	-1%	/	20%[46.1 µM]
Cc1c(Br)c(C(F)(F)F)nn1CC(=O)NCCCn1ccnc1	1%	/	1%	8%	/	-19%	1%	0%
Cc1ccc(C(C[N+](=O)[O-])c2c(N)n(C)c(=O)n(C)c2=O)cc1 (stereo not given)	?	/	-21%	/	/	0%	-96%	/
Cc1ccc(C(=O)NCCc2ccccc2)cc1	3%	/	-14%	/	/	-74%	-15%	/
COc1cccc(CNCCSc2nnnn2C)c1	5%	-7%	1%	3%	3.4%	-18%	10%	-1%
COc1ccc(N2CC(C)Cn3c2nc2c3c(=O)n(Cc3ccc(F)cc3)c(=O)n2C)c(OC)c1 (stereo not given)	11%	?	2%	?	-5.2%	?	-43%	2%
C=CCc1ccccc1OCCOc1ccc([N+](=O)[O-])cc1/C=N/NC(N)=O	4%	/	-1%	-16%[46.1 µM]	/	?	/	2%
COc1ccccc1/C=C(/C(=O)OCC(=O)Nc1cc(C)ccc1C)c1ccccc1	-17%	-1%	-4%	?	-4.1%	-22%	10%	0%
Cc1ccc(-c2nn3c(=O)c(C)nnc3s2)cc1	-11%	-9%	-2%	?	-0.3%	/	-5%	-19%
Cc1cccc(OCCNc2cc(N3CCOCC3)ccc2[N+](=O)[O-])c1	15%	7%	17%	?	-2.5%	30%	-12%	16%
Cn1c(SCC(=O)Nc2cccc(F)c2)nnc1-c1cccnc1	16%	5%	-1%	-13%	-2.1%	7%	-3%	-5%
CCc1nnc(SCC(=O)Nc2ccc(OC)c(OC)c2)c2cc3occc3n12	/	-10%	/	/	0.4%	?	/	?
COCCNC(=O)CCn1c(=O)oc2ccccc21	-7%	16%	5%	-4%	8.3%	-18%	-1%	19%
Cc1ccc(S(=O)(=O)NCC(=O)N(CC(=O)NCC2CCCO2)c2ccc(Cl)cc2)cc1 (stereo not given)	-3%	/	-1%	?	/	12%	-4%	-13%
CC(C)N(C(C)C)S(=O)(=O)c1ccc(Cl)nc1	-12%	/	-5%	13%[46.1 µM]	/	-7%	/	-5%
CCCOc1ccc(CCC(=O)N/N=C/c2ccncc2)cc1	-1%	/	-2%	/	/	1%	0%	/
NCc1ccccc1COc1ccccc1	0%	2%	-2%	-19%	1.5%	-14%	-2%	3%
CSc1ccc(C(=O)C2CCCN(C(=O)CCCn3cncn3)C2)cc1 (stereo not given)	-9%	/	3%	/	/	12%	?	/
O=C(CN1CCN(Cc2ccccc2Cl)CC1)N/N=C/C=C\c1ccccc1[N+](=O)[O-]	2%	-7%	15%	-5%	-8.9%	-11%	8%	/
O=C(Nc1nc(=O)n(C(=O)C2CC2)s1)c1ccccc1	-4%	1%	-24%	?	3.1%	10%	-26%	0%
O=C(c1ccc2c(=O)n(-c3ccccc3)c(=O)[nH]c2c1)N1CCCCC1	12%	-1%	0%	-18%	2.1%	/	1%	-19%
O=C(OCCN1CCOCC1)c1ccc2c(c1)OCCO2	-17%	-1%	/	11%&11%	1.9%	32%[activator]	5%	?
O=C(COC(=O)C1(c2ccc(F)cc2)CCCC1)NCc1ccc2c(c1)OCO2	-4%	-7%	?	?	-8.8%	40µM*	-8%	-2%
COc1ccccc1-c1nc(S(=O)(=O)c2ccccc2)c(N2CCC(C)CC2)o1	/	8%	/	?	-10%	-2%	/	-27%[46.1 µM]
CCN1C(=O)/C(=C2\SC(=S)N(c3c(C)n(C)n(-c4ccccc4)c3=O)C2=O)c2ccccc21	-15%	-10%	0%	13%	1.5%	-15%	3%	6%
CCOC(=O)C1C(=O)NC(N2CCc3ccccc32)=NC1c1ccccc1 (stereo not given)	-5%	3%	4%	?	1.1%	-17%	3%	1%
O=C(NCC1(N2CCCCC2)CCCCC1)c1cccc(S(=O)(=O)Nc2ccccc2Cl)c1	-7%	/	/	?	/	-15%	/	-18%
CCOC(=O)c1cc2c(=O)n3ccccc3nc2n(Cc2ccco2)c1=NC(=O)c1ccccc1OC	1%	-4%	3%	-22%&4%[46.1 µM]	-20%	-8%&7%	/	-3%
COc1ccc(-n2c(O)c(C=NCCN(C)C)c(=O)[nH]c2=O)cc1	6%	/	-1%	-5%	/	0%	-3%	?
CCc1cccc(CC)c1-n1c(SCC(=O)N2CCCc3ccccc32)nc(O)cc1=O	-1%	/	5%	-23%	/	7%	/	-23%
CCN1CCN(CC2COc3ccccc3O2)CC1 (stereo not given)	-4%	/	0%	/	/	-11%	-5%	/
CCc1ccccc1NS(=O)(=O)c1ccc2[nH]cc(C(=O)N3CCCCC3)c(=O)c2c1	/	?	/	-26%[46.1 µM]	-10%	-1%	/	15%[46.1 µM]
N#C/C(=C\c1ccc(-c2ccccc2)cc1)c1nc(-c2ccco2)cs1	-6%	?	?	18%	-6.9%	-19%	0%	5%

Nine neighbouring records from above:
molecule	RE007 growth inh	Cruzain inh noDet	SARS PLpro yeast	Marburg entry inh	Cruzain inh Det	2A StopGo	NS1 inh	Lassa entry inh
CC(C)N(C(C)C)S(=O)(=O)c1ccc(Cl)nc1	-12%	/	-5%	13%[46.1 µM]	/	-7%	/	-5%
CCCOc1ccc(CCC(=O)N/N=C/c2ccncc2)cc1	-1%	/	-2%	/	/	1%	0%	/
NCc1ccccc1COc1ccccc1	0%	2%	-2%	-19%	1.5%	-14%	-2%	3%
CSc1ccc(C(=O)C2CCCN(C(=O)CCCn3cncn3)C2)cc1 (stereo not given)	-9%	/	3%	/	/	12%	?	/
O=C(CN1CCN(Cc2ccccc2Cl)CC1)N/N=C/C=C\c1ccccc1[N+](=O)[O-]	2%	-7%	15%	-5%	-8.9%	-11%	8%	/
O=C(Nc1nc(=O)n(C(=O)C2CC2)s1)c1ccccc1	-4%	1%	-24%	?	3.1%	10%	-26%	0%
O=C(c1ccc2c(=O)n(-c3ccccc3)c(=O)[nH]c2c1)N1CCCCC1	12%	-1%	0%	-18%	2.1%	/	1%	-19%
O=C(OCCN1CCOCC1)c1ccc2c(c1)OCCO2	-17%	-1%	/	11%&11%	1.9%	32%[activator]	5%	?
O=C(COC(=O)C1(c2ccc(F)cc2)CCCC1)NCc1ccc2c(c1)OCO2	-4%	-7%	?	?	-8.8%	40µM*	-8%	-2%

Going on with the list:
molecule	RE007 growth inh	Cruzain inh noDet	SARS PLpro yeast	Marburg entry inh	Cruzain inh Det	2A StopGo	NS1 inh	Lassa entry inh
CC(=O)Nc1ccc(S(=O)(=O)N2CCN(c3cccc(C)c3C)CC2)cc1	10%	?	-1%	/	-5.6%	-28%	-110%	/
CN(Cc1ccc(F)cc1)C(=O)C(c1ccccc1)c1ccccc1	-3%	/	-8%	?	/	-9%	3%	12%
CC(=O)Nc1ccc(C(=O)CSc2nccc(=O)[nH]2)cc1	-19%	/	6%	-1%[46.1 µM]	/	-4%	/	4%[46.1 µM]
Cc1ccc(C2/C(=C(/O)c3ccc(Br)cc3)C(=O)C(=O)N2Cc2ccco2)o1 (stereo not given)	-15%	3%	-9%	10%	-8.6%	21%	-54%	16%
Cc1cc(C(=O)OCC(=O)N2CCN(c3ccccc3)CC2)c2ccccc2n1	0%	-20%	-2%	0%	-3.1%	?	-9%	?
COc1cc2c(c(OC)c1OC)-c1c(cc3c(c1OC)OCO3)C1OC2[C@@H](C)[C@H]1C (stereo not given in full)	-1%	/	-3%	/	/	-30%	1%	/
CC1=Nc2cc(C(=O)NCCCOC(C)C)ccc2Sc2ccccc21	2%	/	1%	?	/	8%	/	?
CCCCNc1cc(NC2CCCCC2)c2c3c(onc13)-c1ccccc1C2=O	/	5%	/	13%[46.1 µM]	6.5%	?	/	4%[46.1 µM]
COc1ccc(N(CCC#N)S(=O)(=O)c2cccc3nsnc23)cc1	0%	-2%	-12%	21%	-3.9%	0%	-10%	4%

Source: PubChem BioAssay
